From PubChem BioAssay
B2AR ag = human beta-2 adrenergic receptor agonism by FAP; P07550; Am2.2-beta2AR cells, FAP receptor internalization, flow cytometry; reference of the scale not given here; response, % (concentration not given with the values); 340,000 tested, 0.43% active;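 active means response above a set limit, near 3 SD of response in nonfluorescent compounds, cut at about 42% in these data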;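 further: stock transfer was 100 nL into about 11 µL; a reference agonist was the positive control; negative values mostly stem from fluorescent compounds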
Vif A3G = inhibitors of Vif binding to APOBEC3G peptide, primary screen, biochemical, TR-FRET, GST-Vif 1-94, biotin-A3G peptide, dose response retest (AID 1117319) | TR-FRET GST-Vif / biotin-A3G peptide binding; higher % means a stronger effect; test concentration not given here; strong numbers were not always called active | 260,000 tested, 0.57% active | inhibition, %, or IC50 in µM where a hit was titrated;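 active means above the screen mean plus three standard deviations and confirmed in dose response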;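 further: Vif residues 1-94 fused to GST binding biotinylated APOBEC3G peptide 110-148; 0% = full assay without inhibitor and 100% = GST in place of GST-Vif; retest series ran down from 100 µM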
HNF4A DNA FP = change in binding of human HNF4 alpha to DNA; AID 1224865; P41235; HNF4a-FITC DNA binding, fluorescence polarization, 1 h; 360,000 tested, 0.3% active; activity change, % at 10 µM; in the data active means activity change above about 30%, passing the limit was not always enough;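 further: controls were the assay level and a saturating level of protein; the project sought stronger binding though the title names inhibitors; some compounds called inactive have numbers as strong as hits; positive values seem to mean higher polarization but the record does not say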
Target sequence (P41235 whole entry, looked up): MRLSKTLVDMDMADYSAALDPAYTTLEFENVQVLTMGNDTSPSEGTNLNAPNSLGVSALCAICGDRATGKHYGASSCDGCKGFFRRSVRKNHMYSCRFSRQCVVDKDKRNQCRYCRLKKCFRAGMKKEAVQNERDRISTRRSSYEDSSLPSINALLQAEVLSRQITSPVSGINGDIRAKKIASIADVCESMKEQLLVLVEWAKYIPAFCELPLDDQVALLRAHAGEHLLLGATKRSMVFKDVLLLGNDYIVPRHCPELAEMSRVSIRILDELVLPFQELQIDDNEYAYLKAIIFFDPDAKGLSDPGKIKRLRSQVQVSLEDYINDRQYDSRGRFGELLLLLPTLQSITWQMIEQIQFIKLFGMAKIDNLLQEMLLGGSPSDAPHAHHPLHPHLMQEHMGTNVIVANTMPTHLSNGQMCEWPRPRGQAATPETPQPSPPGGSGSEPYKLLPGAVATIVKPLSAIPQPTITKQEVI
Bfl-1 A1 inh = inhibitors of the anti-apoptotic protein A1, read as caspase activation | caspase activation, % (test concentration not listed) | MEF A1-2A-BIM cells, Caspase-Glo 3/7 luminescence, 3 h; percent of clofoctol response, vehicle zero | 330,000 tested, 0.066% active;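 active means over half of replicate activation scores above 10%, or exactly half above 10 with the replicate mean above 10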;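 further: wells of about 30 µL received 50 nL stock; many hits fall short of the cut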
Ecoli growth = blocks Escherichia coli growth. OD600, 23 h; active compounds read low. OD600 absorbance (test concentration not listed). 330,000 tested, 0.21% active. AID 1053175;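 active means OD600 absorbance below the run mean of sample wells minus 3.6 SD, in any replicate, cut at about 0.56 in these data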;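 further: stock transfer was 300 nL into about 60 µL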
UCH37 inh = blocks the human deubiquitinase UCH37; Q9Y5K5; inhibition, % (test concentration not listed); 330,000 tested, 0.33% active; purified proteasome/UCH37, Ub-AMC cleavage fluorescence;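 active means mean of two replicates above 20%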;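 further: 0% = compound-free wells with enzyme and 100% = wells lacking proteasome; stock transfer was 100 nL into about 20 µL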
Target sequence (Q9Y5K5 whole entry, looked up): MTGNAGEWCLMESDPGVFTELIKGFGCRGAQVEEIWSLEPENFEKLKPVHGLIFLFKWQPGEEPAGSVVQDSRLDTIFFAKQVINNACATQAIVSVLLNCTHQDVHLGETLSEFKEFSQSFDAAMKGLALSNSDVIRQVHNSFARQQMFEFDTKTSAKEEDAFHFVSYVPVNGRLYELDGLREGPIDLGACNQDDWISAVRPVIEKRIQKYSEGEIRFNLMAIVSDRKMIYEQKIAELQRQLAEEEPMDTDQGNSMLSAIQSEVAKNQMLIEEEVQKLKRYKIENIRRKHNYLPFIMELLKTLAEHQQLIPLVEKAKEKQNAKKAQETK
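Reagent: Ub-AMC substrate; assay system: Proteasome-associated human UCH37 deubiquitinase; controls: no-proteasome and no-compound wells; read-out: % inhibition of Ub-AMC cleavage fluorescence; timing: 30 min preincubation with enzyme, 25 min cleavage at room temperature; signal: AMC fluorescence from Ub-AMC cleavage, excitation 355 nm, emission 460 nm; buffer or medium: Tris-HCl pH 7.4 plus ovalbumin, ATP-MgCl2, DTT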
LANA-H2A inh = blocks KSHV LANA binding to histone H2A/H2B; Q9QR71; cell-free LANA-H2A/H2B peptide, fluorescence polarization; inhibition, % (test concentration not listed); 320,000 tested, 0.6% active; in the data active means inhibition mostly above about 10%, no sharp cut-off; inactive means mostly below about 6.7%;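 further: stock transfer was 7.5 nL into about 10 µL; 0% = median of vehicle wells and 100% = median of positive control wells; one replicate is shown; the record names a cut of 25% in any replicate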
Starred values were filed as active, the others as inactive; x = no result given; & = joins results of further samples. The order is random; any-hit rate near 2.1%.

SMILES	B2AR ag	Vif A3G	HNF4A DNA FP	Bfl-1 A1 inh	Ecoli growth	UCH37 inh	LANA-H2A inh
CC(C)=CCc1cc(-c2oc3cc(O)cc(O)c3c(=O)c2O)ccc1O	-8	x	0.8	-0.7	0.72	7.9	-1.0
O=C(CSc1nnc(COc2ccccc2)o1)N1CCN(c2ccccc2)CC1	-5	-5%&1%	0.4	0.3	0.74	-2.0	-0.7
CC(C)Cn1c(-c2ccco2)csc1=Nc1cccnc1	2	16%	2.9	1.1	0.71	2.3	3.2
O=C(O)c1ccccc1-c1nnc2c(Cl)cc(C(F)(F)F)cn12	-4	2%	2.0	0.7	0.64	2.0	-0.9
CN(Cc1ccco1)C(=O)c1cc2c(s1)-c1ccc(Cl)cc1S(=O)(=O)C2	-5	x	-0.1	-0.2	0.69	-11	-3.7
Cc1csc(NC(=O)Cc2ccc(F)cc2)n1	-4	x	4.5	-0.4	0.65	5.0	-0.4
N=c1c(S(=O)(=O)c2ccc(Br)cc2)cc2c(=O)n3ccccc3nc2n1C1CCCCC1	8	x	11	-1.0	x	x	-0.7
COc1cccc(C(=O)CN(C(=O)c2ccc(Cl)c(Cl)c2)N2C(=O)c3ccccc3C2=O)c1	11	2%	-2.1	-1.1	0.71	1.1	2.7
COc1ccc(C(C)(C)C)cc1NC(=O)C1C2C=CC(C2)C1C(=O)O (stereo not drawn)	25	71%	3.8	0.3	0.68	-0.2	-6.3
COc1ccc2c(c1)NC(c1cc(Cl)cc(Cl)c1O)c1cccn1-2 (stereo not drawn)	-1	2%	-0.3	x	0.69	4.2	x
CCc1ccc(NC(=O)NCCN2CCCCC2)cc1	3	x	4.3	-4.7	0.7	0.8	-0.7
CCNS(=O)(=O)c1ccc(CCC(=O)N2CCN(c3cccc(Cl)c3)CC2)cc1	8	-4%	2.0	-0.2	0.65	1.0	-2.4
O=C(COc1ccccc1F)Nc1nnc(-c2ccncc2)s1	-2	0%	3.4	0.8	0.68	-70	2.5
O=C(Oc1ccnc2cc(Cl)ccc12)N1CCOCC1	-7	8%	-1.6	0.4	0.7	3.7	5.6
O=S(=O)(NC(=NCCc1ccc(Cl)cc1)c1ccccc1Cl)c1cccs1	9	0%	-1.2	0.0	0.7	3.9	0.6
Cc1ccc(NC(=O)C2Oc3ccccc3OC2C)cc1 (stereo not drawn)	-1	x	0.6	0.0	0.67	1.0	-0.4
N#Cc1ccc(Cl)cc1NC(=O)COC(=O)c1ccc2c(c1)OCCO2	-6	-48%	-2.4	-0.9	0.69	-2.7	1.5
CC(Sc1nc2nn(-c3ccccc3)c(=O)c-2c2n1CCCCC2)C(N)=O (stereo not drawn)	-9	-3%	2.7	0.5	0.78	3.0	x
COc1cc(C(=O)NNC(=S)NC(=O)/C=C/c2ccccc2)cc(OC)c1OC	-1	-2%	-1.7	0.6	0.7	4.2	2.3
CC1CC(C)(C)NC(=S)N1CC(=O)N1CCN(Cc2ccccc2)CC1 (stereo not drawn)	-13	1%	1.5	-0.4	0.73	1.5	5.4
O=C(NCCC1=CCCCC1)C1CCN(S(=O)(=O)c2cnc[nH]2)CC1	1	4%	0.1	1.0	0.72	20*	0.1
COc1ccc(C(=O)NNC(=S)Nc2ccccc2)cc1	2	-5%	-1.6	-0.7	0.66	1.7	-4.2
O=C(OCC(=O)N1CCCc2ccccc21)c1ccc(Cl)nc1	-12	x	-0.7	0.4	0.68	2.8	-1.9
Cc1ccc(/C=N/N2CCN(c3ccccn3)CC2)cc1	0	3%	-1.0	-0.4	x	x	1.9
C=CC[N+]1(CC=C)CCOCC1	2	-3%	-2.9	8.6*	0.65	-0.8	0.3

UCH37 inh, entries above that show a hit
compound	B2AR ag	Vif A3G	HNF4A DNA FP	Ecoli growth	UCH37 inh	LANA-H2A inh
O=C(NCCC1=CCCCC1)C1CCN(S(=O)(=O)c2cnc[nH]2)CC1	1	4%	0.1	0.72	20*	0.1

Next part.
SMILES	B2AR ag	Vif A3G	HNF4A DNA FP	Bfl-1 A1 inh	Ecoli growth	UCH37 inh	LANA-H2A inh
Cn1c(N)c(C(=O)COC(=O)C2CCCC2)c(=O)n(C)c1=O	1	1%	-0.7	-0.2	0.67	4.3	1.6
COc1ccc(OC)c(C(=O)c2coc3ccc(OC(C)=O)cc23)c1	2	-2%	-0.1	0.1	0.72	1.7	-3.7
COC(=O)c1cc(OC)c(OC)cc1NC(=O)CCc1ccc(C)o1	-1	4%	2.4	0.5	0.77	1.0	4.1
CCn1nc(C)c(/C=N/NC(=O)Cn2nnc(N)n2)c1C	6	-5%	-4.5	0.6	x	x	2.7
Cc1c(C(=O)OCC2CCCO2)[nH]c2c1C(=O)CC(c1ccc(N(C)C)cc1)C2 (stereo not drawn)	2	2%	1.6	0.2	0.73	1.5	-1.5
COc1cc(Cl)c(C)cc1NC(=O)[C@@H]1CCCN1C(=O)c1cccs1	-7	x	-1.7	0.6	0.69	0.7	5.2
NS(=O)(=O)c1cccc(NC(=O)CSc2nnc3n2CCCCC3)c1	0	x	5.6	1.0	0.69	2.8	-0.5
Cc1cc(/C(N)=N/OC(=O)c2cccc(Cl)c2)no1	1	-13%	-2.9	-2.2	0.68	4.0	1.6
CC(=O)Nc1ccc2c(c1)N(C(=O)CN(C)C)c1ccccc1CC2	4	-9%	-1.6	-0.1	0.69	2.8	-5.1
CCCCc1nc(SCCN2CCOCC2)c2c(=O)n(C)c(=O)n(C)c2n1	1	x	-2.4	0.7	0.69	0.0	0.3
CCOc1ccc(NS(=O)(=O)c2ccc(C(=O)NCC(c3ccc(OC)cc3)N3CCCC3)cc2)cc1 (stereo not drawn)	12	-1%	2.1	-0.4	0.65	-2.9	-1.6
CCCNC(=O)COC(=O)c1ccc(Cl)c(S(=O)(=O)N2CCCC2)c1	3	6%	1.0	-0.5	0.71	2.1	0.6
O=C(CN1C(=O)S/C(=C\c2ccc(Cl)cc2)C1=O)NNC(=O)c1ccccc1O	-12	-3%	-1.6	0.4	0.68	-0.5	-0.4
Cc1ccc(-c2c(C(=O)Nc3ccccc3C)c(C)[nH]c(=S)c2C#N)o1	0	18%	-2.5	-0.2	x	x	0.7
C/C(CC(=O)Nc1cccnc1)=N/NC(=O)COc1ccc(Cl)cc1Br	-13	-2%	-0.9	-1.0	x	x	1.0
O=C(NCCCn1cccn1)C1CCC(=O)N(CCc2ccccc2)C1 (stereo not drawn)	1	-1%	2.8	1.2	0.68	0.7	-2.2
O=C(c1cccs1)N1CCCC(N2CCN(c3ccc(F)cc3)CC2)C1 (stereo not drawn)	-6	x	10	1.3	0.67	0.9	0.7
Cc1cc2oc(=O)cc(CN3CCOCC3)c2cc1C(C)C	9	x	1.1	-0.7	0.68	2.3	-8.4
Nc1nc2c(ncn2COC(CO)CO)c(=O)[nH]1	-1	17%	0.0	1.2	0.67	0.9	-4.5
COc1cccc(NC(=O)c2ccc3c(c2)C(=O)N(CC2CCCO2)C3=O)c1 (stereo not drawn)	-3	x	3.0	0.9	0.67	2.9	1.2
O=C(NNc1c(F)c(F)cc(F)c1F)c1ccc(Cl)nc1	2	x	0.0	-0.2	0.66	3.6	5.6
COc1ccccc1N(C)S(=O)(=O)c1ccc(C(=O)Nc2cc(F)ccc2C)cc1	3	-2%	-2.4	-1.5	0.65	1.4	7.8
O=C(Nc1ccc(Nc2ccccc2)cc1)c1ccc(Br)o1	3	8%	0.5	x	0.58	4.4	6.8
C/C(=N\NC(=O)c1ccc(O)cc1)c1cccc(NC(=O)c2ccccc2C)c1	5	x	-7.8	0.3	x	x	3.7
CC(C)c1ccccc1NC(=O)c1ccc(CN(c2ccccc2)S(=O)(=O)c2ccccc2)cc1	x	14%	x	0.6	0.74	2.9	0.3

Grouped by structure: the entries above containing a COOH group.
SMILES	B2AR ag	Vif A3G	HNF4A DNA FP	Bfl-1 A1 inh	Ecoli growth	UCH37 inh	LANA-H2A inh
O=C(O)c1ccccc1-c1nnc2c(Cl)cc(C(F)(F)F)cn12	-4	2%	2.0	0.7	0.64	2.0	-0.9
COc1ccc(C(C)(C)C)cc1NC(=O)C1C2C=CC(C2)C1C(=O)O (stereo not drawn)	25	71%	3.8	0.3	0.68	-0.2	-6.3

(next part)
SMILES	B2AR ag	Vif A3G	HNF4A DNA FP	Bfl-1 A1 inh	Ecoli growth	UCH37 inh	LANA-H2A inh
Clc1ccc(C2Nc3cccc4cccc(c34)N2)cc1	6	14%	-0.7	-1.1	0.71	3.9	-2.5
O=C(CCN1CCCCC1)c1ccc2c(c1)OCO2	2	3%	-1.8	0.1	0.7	-3.3	1.3
O=C(OCCSCCOC(=O)C1CC=CCC1)C1CC=CCC1 (stereo not drawn)	1	-1%	-1.4	x	0.64	0.0	x
CC1(C)CC2CC(C)(CN2C(=O)COc2cccc3ccccc23)C1 (stereo not drawn)	8	9%	-0.8	1.3	0.74	1.3	3.7
COc1ccc(OCCNC(=S)Nc2cccc3ccccc23)cc1	-3	2%	-2.4	0.0	0.7	4.1	-8.0
COc1cccc(N=C2SC(C(=O)Nc3ccccc3F)CC(=O)N2C)c1 (stereo not drawn)	-3	12%	4.2	-0.2	0.72	1.4	-1.2
COc1cc(/C=N/NC(=O)c2ccncc2)ccc1Oc1ccc([N+](=O)[O-])cn1	0	-13%	-5.9	0.1	x	x	1.4
O=C(NCCCN1CCOCC1)c1ccc(NS(=O)(=O)c2cccc([N+](=O)[O-])c2)cc1	-1	x	-2.2	0.3	0.75	3.5	-6.0
CCc1cccc(OCCCCNCCCOC)c1	5	-4%	1.1	0.5	0.69	2.1	-1.0
CCOC(=O)c1sc2nc(C)nc(N3CCN(c4ncccn4)CC3)c2c1C	-8	-94%	0.6	0.1	0.68	-9.0	2.8
COc1ccc(OCC(=O)OC(C)CN2CCCCC2)cc1 (stereo not drawn)	-2	-7%	-1.4	-0.7	0.65	1.8	2.9
CC(C)CNC1=CC(=O)CC(c2ccco2)C1 (stereo not drawn)	1	3.8µM*	-5.9	0.0	0.73	2.9	-0.1
Cc1c(NC(=O)c2ccccc2NC(=O)c2ccccc2)cccc1C(=O)O	-3	x	0.6	-0.5	0.62	0.9	0.8
CCc1[nH]nc2c1C(Cc1ccccc1)C(C#N)=C(N)O2 (stereo not drawn)	-1	3%	-3.0	0.2	0.64	3.2	5.9
CC(C)=C1C2C=CC1C(C(=O)Nc1cccc(C)c1)C2C(=O)O (stereo not drawn)	2	-2%	-2.0	0.4	0.71	4.8	-5.5
Cc1cc(NC(=O)c2ccc(S(=O)(=O)N(C)C)cc2)no1	-11	1%	2.6	-0.7	0.68	0.0	-3.7
O=C(CSc1nnc(-c2ccncc2)n1Cc1ccco1)Nc1cccc(O)c1	-2	3%	-3.8	-0.8	0.66	0.1	0.4
COc1ccccc1NC(=O)CC1COc2ccccc2O1 (stereo not drawn)	7	1%	-3.6	3.3	0.75	-2.6	-3.1
CCc1cccc(Nc2cc(C)nc3ncnn23)c1	-12	21%	-4.5	-1.0	0.74	0.6	2.1
O=C(OCCOc1ccc(Br)cc1)c1cnccn1	1	30%	4.0	-0.2	0.78	5.0	-0.2
CC(=O)Nc1ccc(SCC(=O)OCC(=O)NC(=O)NC2CCCC2)cc1	3	9%	0.4	0.4	0.7	1.6	-0.4
O=C1/C(=C/c2ccc(Br)cc2)Oc2cc(O)ccc21	11	x	8.1	-6.9	x	x	-8.8
COCCn1c(C)cc(C(=O)CSc2nc3ccccc3c(=O)[nH]2)c1C	2	25%	-5.7	0.2	0.65	-3.5	6.9
Cc1ccccc1Oc1ncnc2sccc12	-15	-1%	2.6	0.3	0.71	1.7	-13
